Screens as filed in PubChem.
gsp antagonist: qHTS for Antagonists of gsp, the Etiologic Mutation Responsible for Fibrous Dysplasia/McCune-Albright Syndrome: qHTS. gsp-mutant cells, cAMP HTRF, 30 min; control for the full effect not named in the record. Potency, µM (series often up to 76.9 µM), for inactives: at the highest dose activity change, negative = inhibition, hits mostly inhibitors. 340,000 compounds, 0.4% hits; active = falling curve of any shape with a large fitted effect; inconclusive = falling curve, mostly with a smaller effect; inactive = flat or rising curve; cell line not stated here;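 also: intracellular cAMP measured with PDE inhibitor Ro 20-1724 present during compound exposure; potency is read from the fitted curve at half-maximal effect; % is scaled to controls: 0 for no effect and ±100 for the full control effect; nearly all actives have a fitted effect of over 65% in size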
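Cells, 2000/well, grown 16–24 h in DMEM 10% FBS with 0.5 mg/ml G418, then compounds plus […] (300 uM addition stock), 30 min at 37C. cAMP read by HTRF (cAMP-d2 and anti-cAMP antibody-K in lysis buffer) after 30 min RT.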
Menin MLL FP FL: qHTS Assay for Inhibitors Targeting the Menin-MLL Interaction in MLL Related Leukemias: Competition With Fluorescein Labeled MLL-derived Peptide; 290,000 tested, under 10 active; AID 1766, 2009; Fluorescence polarization, fluorescein-MLL peptide displacement from menin; FP activity change, % at 61.4 µM; inconclusive = falling polarisation curve, or a change in total fluorescence; inactive = total fluorescence flat and polarisation flat or rising; no compound was filed as active; the % refers to the polarisation; negative = inhibition;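 also: % of control where 0% means no effect; inhibitors lower the polarisation; unlabelled MLL peptide was the positive control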
TRPV1 PAM: HTS Assay for Compounds that Act as Potentiators of the Vanilloid Receptor 1. potentiation, % at 8.33 µM. Transient receptor potential cation channel subfamily V member 1 (Homo sapiens), Q8NER1. TRPV1-expressing cells, Fluo-8 calcium influx, capsaicin EC20 potentiation; host cell line not named in the record; control for the full effect not named in the record. 320,000 compounds, 0.02% hits; active means potentiation above 80%; inconclusive means 30% to 80%; inactive means below 30%; also: 0% is about no effect
Target sequence (Q8NER1 whole entry, looked up): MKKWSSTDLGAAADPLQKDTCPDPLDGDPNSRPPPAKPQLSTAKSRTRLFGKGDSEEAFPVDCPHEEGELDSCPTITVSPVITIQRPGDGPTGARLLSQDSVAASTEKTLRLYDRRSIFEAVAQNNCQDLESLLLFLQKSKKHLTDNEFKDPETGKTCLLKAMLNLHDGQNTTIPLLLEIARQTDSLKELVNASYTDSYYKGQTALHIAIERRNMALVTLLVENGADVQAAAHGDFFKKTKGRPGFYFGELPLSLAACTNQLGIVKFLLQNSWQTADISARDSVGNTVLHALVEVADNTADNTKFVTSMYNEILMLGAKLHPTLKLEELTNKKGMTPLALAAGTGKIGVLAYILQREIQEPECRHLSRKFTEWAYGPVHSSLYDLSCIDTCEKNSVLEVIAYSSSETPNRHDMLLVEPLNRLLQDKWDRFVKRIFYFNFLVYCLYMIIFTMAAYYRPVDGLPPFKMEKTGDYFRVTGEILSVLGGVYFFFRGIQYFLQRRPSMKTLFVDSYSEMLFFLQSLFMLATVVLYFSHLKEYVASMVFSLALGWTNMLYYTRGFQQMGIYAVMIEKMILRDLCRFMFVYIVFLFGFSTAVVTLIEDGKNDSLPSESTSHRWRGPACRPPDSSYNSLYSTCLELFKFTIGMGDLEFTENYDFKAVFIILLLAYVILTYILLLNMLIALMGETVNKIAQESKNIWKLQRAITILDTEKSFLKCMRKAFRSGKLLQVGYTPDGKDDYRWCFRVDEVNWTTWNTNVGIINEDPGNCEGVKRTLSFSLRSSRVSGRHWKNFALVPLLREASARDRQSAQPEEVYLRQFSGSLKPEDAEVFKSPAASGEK
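Fluo-8 calcium influx in TRPV1-expressing cells, kinetic read (ex 480/em 520 nm). Compound added and read 3 min for agonist activity, followed by capsaicin at EC20 final and 2 min further read for enhancement.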
ClpP mod: qHTS Assay for Activators of ClpP; ATP-dependent Clp protease proteolytic subunit (Bacillus subtilis (strain 168)), P80244; AID 651965, 2013; Potency, µM (series often up to 57.5 µM), inactives show top-dose activity change, negative = active; 340,000 compounds, 1.9% hits; purified B. subtilis ClpP, FRET peptide cleavage, 20 min; active = well fitted falling curve with a large enough effect; inconclusive = small, poorly fitted or top-dose-only effect; inactive = no such curve, though single readings can be large or run the other way; also: potency is read from the fitted curve at half-maximal effect; the source files actives as falling curves though it sought activators and does not explain the sign; nearly all actives have a fitted effect of over 65% in size; many hits overshoot -100%
Target sequence (P80244 whole entry, looked up): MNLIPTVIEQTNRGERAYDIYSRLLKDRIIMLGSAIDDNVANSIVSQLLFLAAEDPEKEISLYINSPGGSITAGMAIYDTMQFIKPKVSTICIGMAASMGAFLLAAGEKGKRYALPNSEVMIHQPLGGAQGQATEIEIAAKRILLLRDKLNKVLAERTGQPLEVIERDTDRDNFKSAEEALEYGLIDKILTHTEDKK
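Buffer: 100 mM Tris/HCl pH8, 100 mM KCl, 0.05% low protease BSA, 2.5% glycerol, 0.01% Tween-20. ClpP 10 microg/mL final; 20 min RT; delta FRET normalized to ADEP and DMSO controls.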
gsp ag: qHTS for Agonist of gsp, the Etiologic Mutation Responsible for Fibrous Dysplasia/McCune-Albright Syndrome: qHTS | 340,000 compounds, 0.13% hits | Potency, µM (doses to about 76.9 µM), without a hit: top-dose activation (cAMP increase), actives largely listed as activators | AID 624287, 2012 | gsp mutant cells, cAMP HTRF, 30 min; control for the full effect not named in the record; active = well fitted activation curve with a large enough effect; inconclusive = small, poorly fitted or top-dose-only effect, or another doubt; inactive = no such curve, though single readings can be large or run the other way; cell line not stated here;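 also: phosphodiesterase inhibitor Ro 20-1724 added with compounds to block cAMP breakdown; potency is read from the fitted curve at half-maximal effect; nearly all actives have a fitted effect of over 60% in size; about a fifth of the inactives were tested at one dose only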
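Cells stably selected in G418 were plated at 2000/well, grown 16-24 hr, then given compounds in DMSO with the PDE inhibitor […] (300 uM solution added) for 30 min at 37C; cAMP was read by HTRF.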
Sfp inh: qHTS Assay for Inhibitors of Bacillus subtilis Sfp phosphopantetheinyl transferase (PPTase); 4'-phosphopantetheinyl transferase ffp (Bacillus subtilis), Q9F4F7; Biochemical Sfp PPTase activity, qHTS; Potency, µM, inactives show max response, negative = inhibition, usual class: inhibitors; 310,000 compounds, 3.5% hits; AID 1490, 2009; active = well fitted inhibition curve with a large enough effect; inconclusive = small, poorly fitted or top-dose-only effect, or another doubt; inactive = no such curve, though single readings can be large or run the other way;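 also: the enzyme is Sfp with the accession as filed and its product quenches rhodamine fluorescence; potency is read from the fitted curve at half-maximal effect; 0% = enzyme reaction without inhibitor and -100% = no enzyme wells; top concentration of the series not given in the record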
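Sfp 15 nM + cpd, 15 min RT; start w/ rhodamine-CoA 5 uM, BHQ-2-YbbR 12.5 uM (final); 50 mM Hepes pH 7.6, 10 mM MgCl2, 0.01% NP-40, 0.01% BSA; read 525/598 nm at 0 and 30 min.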
CtBP-E1A inh: qHTS Assay for Inhibitors of the CtBP/E1A Interaction; CtBP / adenovirus E1A interaction (AlphaScreen); AlphaScreen GST-E1A/His-CtBP binding, 1536-well; active compounds read low; control for the full effect not named in the record; activity change, % (concentration not given with the values); 340,000 compounds, 0.49% hits; AID 651724, 2012; in the data active means activity change below about -65%; inconclusive means about -30% to -65%; inactive means above about -30%; also: % is scaled to controls: 0 for no effect and ±100 for the full control effect
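In 5 uL wells, 23 nL compound meets equimolar GST-E1A and His-CtBP (5X stock 125 nM each) for 2 h, 37 °C. Beads (5X, 50 ug/mL) then 1 h, 37 °C, dark.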
* marks the source's active call; other numbers are inactive results; u = inconclusive; x = not tested or not shown; & = joins results of further samples; [ ] = another dose, or the depositor's remark.

SMILES	gsp antagonist	Menin MLL FP FL	TRPV1 PAM	ClpP mod	gsp ag	Sfp inh	CtBP-E1A inh
Cc1ccc(CNC(=O)CSc2ncn[nH]2)cc1	-5%	4.5	16	x	23%	13%	5
CCN1CCN(CC(=O)Nc2nc3ccc(OC)cc3s2)CC1	-6%	2.5	-3	-3.6%	8%	89µM*	-3
Cc1ccc2cc(CN(Cc3cccs3)Cc3nnnn3CC3CCCO3)c(=O)[nH]c2c1C (configuration not stated)	-9%	7.5	-3	-18%	15%	5%	-22
Cc1ccc(Nc2c([N+](=O)[O-])ccc3nonc23)cc1C	4%	1.6	-3	-0.7%	7%	5%	-27
COc1cccc(C(=O)COc2ccccc2N2C(=O)C3C4C=CC(C4)C3C2=O)c1 (configuration not stated)	12%	4.3	-28	-3.5%	-11%	4%	12
COc1ccc(Nc2nccc(OC)c2C#N)cc1	-4%	-1.9	-4	0.4%	-21%	0%	7
COc1ccc(CCNC(=O)c2cc(Cl)nc3ccccc23)cc1	-5%	x	-3	-7.3%	-1%	12%	5
Cc1ccc(S(=O)(=O)N2CCN(C(=O)CSc3ccc(Cl)cc3)CC2)cc1	-20%	-0.5	-11	x	-24%	0%	6
O=C(CCc1nnc(-c2ccccc2)o1)NCC1CCN(C2CCCC2)CC1	8%	-4.0	3	x	4%[15.4 µM]	5%	8
COc1ccc(-c2noc(CCCC(=O)O)n2)cc1	-7%	1.3	2	-0.2%	-61%[inhibitor]	12%	7
COc1ccc(NC(=O)C2CCCCN2CC(=O)OCc2ccccc2)cc1OC (configuration not stated)	4%	2.0	-4	-1.6%	-45%[inhibitor]	19%	1
CC(=O)Nc1sc2c(c1CN1CCN(C)CC1)CCCC2	15%	-1.7	2	1.1%	-22%	-3%	2
c1ccc2c(c1)CCc1ccccc1C2=C1CCNCC1	1%	x	x	1.5%	-10%	x	-7
COc1ccc2c(CC(=O)NCC3CCC(C(=O)O)CC3)cc(=O)oc2c1 (configuration not stated)	7%	0.4	1	50%	16%	8%	-1
COC(=O)c1cc(Cl)c(NC(=O)/C=C/c2ccc(Cl)cc2)cc1OC	2%	-1.2	-12	6.8%	5%	15%	40
COc1ccccc1C(C)NC(=O)CN(C)CC(=O)Nc1c(C)cccc1C (configuration not stated)	4%	x	18	-0.6%	11%	x	3
N=C1/C(=C/c2cccn2-c2ccc([N+](=O)[O-])cc2)C(=O)N=C2SC=CN12	2%	-0.2	u	-0.4%	-58%	-8%	0
Cc1ccc(-c2nnc(Nc3cccc(O)c3)c3ccccc23)cc1S(=O)(=O)NCCO	-12%	-0.4	9	-0.9%	-1%	6%	u
O=c1[nH]c(NCCO)nc2c1C1(CCCCC1)Cc1ccccc1-2	-2%	3.2	-7	32µM*	5%	-1%	1
COc1ccc(-c2cc(C(=O)N3CCCC(C(F)(F)F)C3)c3ccccc3n2)cc1 (configuration not stated)	-11%	x	-6	3.4%	-1%	x	4
Cc1nc(-c2cccs2)sc1C(=O)NN	7%	-3.8	-11	0.7%	-9%[15.4 µM]	-5%	-1
COc1ccc(-c2nc3c(n2O)CCc2c-3no[n+]2[O-])cc1	-8%	5.0	7	0.0%	24%	14%	0
COc1cc(C2C3=C(CC(C)(C)CC3=O)OC(N)=C2[N+](=O)[O-])ccc1O (configuration not stated)	u	0.5	-4	-1.0%	-37%[inhibitor]	2%	3
CCCOc1cccc(CN2CCCCC2c2cccnc2)c1 (configuration not stated)	-13%	-0.3	-18	0.1%	u	26%	2
CCc1ccccc1N(CC(=O)NC(C)C)C(=O)CCC(=O)Nc1nccs1	3%	3.1	5	0.5%	14%	4%	-1

Fetched one by one from the list above (four):
SMILES	gsp antagonist	Menin MLL FP FL	TRPV1 PAM	ClpP mod	gsp ag	Sfp inh	CtBP-E1A inh
Cc1ccc(S(=O)(=O)N2CCN(C(=O)CSc3ccc(Cl)cc3)CC2)cc1	-20%	-0.5	-11	x	-24%	0%	6
N=C1/C(=C/c2cccn2-c2ccc([N+](=O)[O-])cc2)C(=O)N=C2SC=CN12	2%	-0.2	u	-0.4%	-58%	-8%	0
COc1ccccc1C(C)NC(=O)CN(C)CC(=O)Nc1c(C)cccc1C (configuration not stated)	4%	x	18	-0.6%	11%	x	3
O=c1[nH]c(NCCO)nc2c1C1(CCCCC1)Cc1ccccc1-2	-2%	3.2	-7	32µM*	5%	-1%	1

The listing continues:
SMILES	gsp antagonist	Menin MLL FP FL	TRPV1 PAM	ClpP mod	gsp ag	Sfp inh	CtBP-E1A inh
COc1ccc(C(=O)Oc2cc(C)[nH]c(=O)c2[N+](=O)[O-])c(OC)c1	7%	-1.9	u	-14%	4%	3%	-10
Cc1cc(C)c(S(=O)(=O)N2CCN(C(=O)C3CCCO3)CC2)c(C)c1 (configuration not stated)	7%	x	3	-4.5%	-1%	x	x
Cc1ccc(OCC(=O)OCC(=O)NC2CCS(=O)(=O)C2)cc1C (configuration not stated)	x	x	x	-0.3%	0%	x	-1
Cc1ccc(Cn2ccnc2SCC(=O)NC2CCCC2)cc1	10%	x	-18	1.2%&-1.1%	0%[15.4 µM]	0%	4
Cc1cccc(N2CCN(C(=O)/C=C/c3cccs3)CC2C)c1 (configuration not stated)	-9%	-2.8	-10	x	-20%	1%	-25
C=CCN(Cc1ccc(OC)c(OC)c1)C(=O)c1cc2cc(F)ccc2[nH]1	0%	-1.0	0	-2.4%	-22%	2%	-2
CN1C(C(=O)NCc2ccc(OC(F)(F)F)cc2)CC2Cn3c(nc4cc(Cl)c(Cl)cc43)C21 (configuration not stated)	-12%	1.8	-12	-0.5%	x	u	-11
O=C(/C=C/c1cccs1)Nc1ccc(N2CCOCC2)c(S(=O)(=O)Nc2ccccc2Cl)c1	-4%	4.5	-37	-11%	12%[15.4 µM]	38%	-21
CC(=O)SC(C[N+](=O)[O-])c1cn(C(C)=O)c2ccccc12 (configuration not stated)	-11%	u	2	u	-24%	10µM*	-4
Clc1ncccc1-c1nnn(-c2ccccc2)n1	-3%	-1.9	-5	-2.2%	x	9%	14
CCC(=O)Nc1ccc2c(c1)nc1n2CCN(CCOC)C1	4%	0.6	-9	4.0%	-1%	10%	x
CSc1nnc(C)c(=O)n1COC(=O)c1cc(Cl)ccc1[N+](=O)[O-]	-21%	-4.1	13	x	-12%	-19%	-7
CCCC(=O)Nc1sc2c(c1C(=O)OCC)CC(C)(C)OC2	-13%	2.6	-7	-0.3%	24%[15.4 µM]	10%	4
N#C/C(=N\Nc1ccccc1[N+](=O)[O-])C(=N)N1CCCCC1	-15%	1.6	3	x	u	2%	-5
Cc1cc(S(=O)(=O)N2CCCCC2CCNC(=O)C(=O)NC2CC2)ccc1F (configuration not stated)	-5%	x	-6	1.7%	15%[15.4 µM]	x	-1
CN(Cc1ccc(F)cc1)Cc1nc(CCc2ccccc2)no1	8%	2.4	-26	-0.9%	-1%[15.4 µM]	-3%	6
CCCn1c(N)c(N(CCOC)C(=O)c2cccc(F)c2)c(=O)[nH]c1=O	2%	-1.4	4	-0.3%	-1%[15.4 µM]	17%	-5
O=C(NCCOC(=O)c1c(F)cccc1Cl)c1c(F)cccc1Cl	11%	10	-3	x	-17%[15.4 µM]	14%	2
Cc1cc(/C=N/N2CCN(C)CC2)c(C)n1-c1ccccc1F	6%	-1.9	3	-1.9%	u	u	-2
Cc1cc(C)c2nc(N(CCN(C)C)C(=O)c3ccc(S(=O)(=O)N(C)CC4CCCO4)cc3)sc2c1 (configuration not stated)	7%	3.3	0	0.5%	-36%[inhibitor]	u	-13
CC1(C)C(C=C(Cl)Cl)C1C(=O)NC(O)C(=O)c1ccccc1 (configuration not stated)	9%	9.8	-4	0.0%	-2%[15.4 µM]	4%	6
C(=C\c1ccccc1)/CN1CCN(c2ncnc3c2oc2ccccc23)CC1	u	2.1	-9	-6.9%	0%	-17%	-15
CCS(=O)(=O)c1ccc(-c2cccc(NC(=O)c3ccc(Br)o3)c2)nn1	6%	x	-3	0.0%	-2%[15.4 µM]	x	0
O/N=C\c1ccc2noc(-c3ccc(Cl)cc3)c2c1	-2%	4.0	25	-2.1%	-30%[inhibitor]	4%	x
CCCCn1c(SCC(=O)NNC(=O)c2ccccc2)n[nH]c1=O	4%	x	x	-1.1%	9%	x	x
COc1ccc2cc(C3CC(c4cccs4)=NN3C(C)=O)c(Cl)nc2c1 (configuration not stated)	-7%	-0.6	-9	0.8%	-13%[15.4 µM]	6%	-1
Cc1cc(C)cc(NC(=O)C2CCCCN2S(=O)(=O)c2ccccc2)c1 (configuration not stated)	x	x	x	-3.4%	6%	x	3
COc1cc(CNCCO)ccc1OCCc1ccccc1	17%	0.5	6	x	-37%[inhibitor]	3%	-20
O=C(c1cnc2n(c1=O)CCS2)N(c1ccccc1)C1CCCCC1	5%	4.4	-3	-1.0%	0%	-2%	2
CCC/C(O)=C1\C(=O)CCCC1=NC(C)C(=O)O (configuration not stated)	3%	0.2	5	-1.1%	-52%[inhibitor]	16%	-15
O=C(Nc1ccc(Cl)c(S(=O)(=O)N2CCOCC2)c1)C1CCCC1	-5%	x	x	-2.1%	-21%	x	x
NC(=O)CC(c1ccccc1)c1ccco1 (configuration not stated)	9%	0.4	0	-1.8%	9%	13%	-5
